Source: PubChem BioAssay
UUG fidelity: modulators of start codon recognition fidelity in yeast | AID 602363 | S. cerevisiae UUG-firefly luciferase reporter, luminescence/redox ratio | activity score, % at 18.7 µM | 350,000 tested, 0.13% active;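 active = replicate mean at a twofold rise or more, about +100% in these data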;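 note: firefly luciferase made from a UUG start codon reports start codon fidelity; reporter light over untreated wells divided by growth signal over untreated wells; some hits fall short of that in this replicate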
HIV Env fusion: inhibitors of HIV Env-mediated cell fusion | inhibition, % at 12.3 µM | 360,000 tested, 1.1% active | HeLa-JRFL Env/CEM21 cell fusion, luciferase;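 active = mean replicate inhibition score of at least 50 and every replicate individually at or above 50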;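 note: 0% = plate neutral controls and 100% = maraviroc near 300 nM; one replicate is shown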
Numbers without * were called inactive; [ ] = dose if it differs, or a comment.

SMILES	UUG fidelity	HIV Env fusion
CC(C)NC(=O)N(C)C[C@H]1Oc2ccc(NC(=O)NC3CCCCC3)cc2C(=O)N([C@@H](C)CO)C[C@@H]1C	-2.6	8.1[16.7 µM]
C[C@@H]1CN([C@H](C)CO)C(=O)c2cccc(NS(=O)(=O)c3ccc(Cl)cc3)c2O[C@H]1CN(C)CC1CCCCC1	25.6	88.4*[16.7 µM]
Cc1noc(C)c1NC(=O)Nc1ccc2c(c1)CC(=O)N([C@H](C)CO)C[C@@H](C)[C@H](CN(C)Cc1ccc(C(F)(F)F)cc1)O2	16.7	-14.2[16.7 µM]
O=C(NC1CCCCC1)N[C@@H]1CC[C@H](CCNS(=O)(=O)c2ccc(F)cc2)O[C@H]1CO	0.3	-6.7[16.7 µM]
COc1cccc(CNC(=O)C[C@@H]2C=C[C@@H](NC(C)=O)[C@H](CO)O2)c1	-11.7	6.3[16.7 µM]
COC(=O)C[C@@H]1CC[C@@H]2[C@@H](COc3ccc(NC(=O)c4ccccc4)cc3C(=O)N2C)O1	8.4	2.7[16.7 µM]
C[C@@H]1CN([C@@H](C)CO)S(=O)(=O)c2ccc(Br)cc2O[C@H]1CN(C)S(=O)(=O)c1cccc(F)c1	11.9	31.8[16.7 µM]
Cc1ccc(S(=O)(=O)N[C@@H]2C=C[C@H](CC(=O)N3CCN(c4ccccc4)CC3)O[C@@H]2CO)cc1	-2.5	-4.2[16.7 µM]
Cc1ccccc1-c1cnc2c(c1)C(=O)N([C@@H](C)CO)C[C@@H](C)[C@H](CN(C)Cc1ccncc1)O2	-12.3	-13.9[16.7 µM]
O=C(C[C@@H]1C=C[C@H](NC(=O)Nc2ccc(C(F)(F)F)cc2)[C@@H](CO)O1)NCc1ccccn1	-0.1	8.7[16.7 µM]
CC(=O)Nc1ccc2c(c1)C(=O)N(C)[C@@H]1CC[C@H](CC(=O)NCc3ccccc3Cl)O[C@@H]1CO2	4.4	-7.2[16.7 µM]
C[C@H]1CN([C@@H](C)CO)C(=O)c2cccc(NS(=O)(=O)c3ccc(F)cc3)c2O[C@H]1CN(C)S(C)(=O)=O	1.1	-11.0[16.7 µM]
C[C@H]1CN([C@@H](C)CO)S(=O)(=O)c2ccc(-c3ccccc3)cc2O[C@H]1CN(C)Cc1ccccc1	13.9	55.2*[16.7 µM]
COc1ccc(NC(=O)Nc2cccc3c2O[C@@H](CN(C)S(=O)(=O)c2ccccc2)[C@H](C)CN([C@@H](C)CO)C3=O)cc1	-3.4	-36.7[16.7 µM]
COc1ccccc1NC(=O)N[C@@H]1CC[C@H](CCNS(=O)(=O)c2ccc(F)cc2)O[C@@H]1CO	5.0	17.7[16.7 µM]
Cc1ccc(S(=O)(=O)N(C)C[C@H]2Oc3ccc(NS(=O)(=O)c4ccc(F)cc4)cc3C(=O)N([C@@H](C)CO)C[C@H]2C)cc1	2.6	6.6[16.7 µM]
N#C[C@@H]1[C@H](c2ccc(C#Cc3ccccc3F)cc2)[C@H](CO)N1C(=O)C1CCCCC1	-3.6	32.0[16.7 µM]
O=C(C[C@H]1CC[C@@H](NC(=O)C2CCC2)[C@@H](CO)O1)Nc1nccs1	-28.0	-18.0[16.7 µM]
COc1cccc(-c2cnc3c(c2)C(=O)N([C@@H](C)CO)C[C@@H](C)[C@@H](CN(C)Cc2ccc(C(=O)O)cc2)O3)c1	-7.6	-18.8[16.7 µM]
C[C@@H]1CN([C@@H](C)CO)C(=O)Cc2cc(NC(=O)Cn3cnnn3)ccc2O[C@@H]1CN(C)S(=O)(=O)c1ccc(Cl)cc1	9.0	-3.7[16.7 µM]
C[C@@H]1CN([C@H](C)CO)C(=O)c2cc(-c3ccccc3F)cnc2O[C@@H]1CN(C)C(=O)c1ccccn1	8.4	0.0[16.7 µM]
C[C@H](CO)N1C[C@H](C)[C@H](CN(C)C(=O)Nc2cccc3ccccc23)OCCCC[C@H](C)Oc2ccc(NC(=O)Nc3ccccc3)cc2C1=O	18.1	-15.9[16.7 µM]
CCC(=O)N[C@H]1CC[C@@H](CCn2cc(CN(C)C)nn2)O[C@@H]1CO	-3.2	2.3[16.7 µM]
Cc1ccc(S(=O)(=O)Nc2ccc3c(c2)C(=O)N([C@@H](C)CO)C[C@@H](C)[C@H](CN(C)Cc2ccc(C(=O)O)cc2)OCCCC[C@@H](C)O3)cc1	4.7	-9.3[16.7 µM]
Cc1ccc(-c2ccc3c(c2)O[C@@H](CN(C)Cc2ccccc2)[C@@H](C)CN([C@H](C)CO)S3(=O)=O)cc1	-3.5	39.7[16.7 µM]

The last 2 entries of the part above come first, to join the parts.
SMILES	UUG fidelity	HIV Env fusion
Cc1ccc(S(=O)(=O)Nc2ccc3c(c2)C(=O)N([C@@H](C)CO)C[C@@H](C)[C@H](CN(C)Cc2ccc(C(=O)O)cc2)OCCCC[C@@H](C)O3)cc1	4.7	-9.3[16.7 µM]
Cc1ccc(-c2ccc3c(c2)O[C@@H](CN(C)Cc2ccccc2)[C@@H](C)CN([C@H](C)CO)S3(=O)=O)cc1	-3.5	39.7[16.7 µM]
C[C@@H]1CN([C@@H](C)CO)C(=O)c2cc(NC(=O)Cc3ccccc3)ccc2O[C@@H]1CN(C)C(=O)Nc1ccc2c(c1)OCO2	5.1	2.7[16.7 µM]
O=C(N[C@@H]1CC[C@@H](CCNS(=O)(=O)c2cccc(Cl)c2)O[C@@H]1CO)c1ccncc1	-7.5	6.8[16.7 µM]
C[C@H]1CN([C@@H](C)CO)C(=O)c2cccc(NC(=O)NC3CCCCC3)c2O[C@H]1CN(C)C(=O)NC1CCCCC1	26.1	-7.4[16.7 µM]
CCNC(=O)C[C@@H]1CC[C@@H]2[C@@H](COc3ccc(NC(=O)Nc4ccc(C)cc4)cc3C(=O)N2C)O1	3.5	2.9[16.7 µM]
C[C@@H]1CN([C@H](C)CO)C(=O)Cc2cc(NC(=O)CCCCCC(=O)Nc3ccccc3N)ccc2O[C@@H]1CN(C)S(=O)(=O)c1ccc(F)cc1	0.9	16.9[16.7 µM]
Cc1noc(C)c1NC(=O)N(C)C[C@@H]1Oc2ccc(NC(=O)NC3CCCCC3)cc2CC(=O)N([C@@H](C)CO)C[C@@H]1C	-17.5	4.7[16.7 µM]
O=S(=O)(NCC[C@H]1CC[C@H](NS(=O)(=O)c2ccccc2Cl)[C@@H](CO)O1)c1ccc(Cl)cc1	-11.7	-4.2[16.7 µM]
O=C(Nc1ccccc1F)N[C@@H]1CC[C@H](CC(=O)N2CCCCC2)O[C@@H]1CO	0.8	23.8[16.7 µM]
CN1C(=O)c2cc(NC(=O)c3cccs3)ccc2OC[C@H]2O[C@@H](CC(=O)NCC3CC3)CC[C@@H]21	-0.1	3.6[16.7 µM]
COc1ccccc1-c1cnc2c(c1)C(=O)N([C@H](C)CO)C[C@H](C)[C@H](CN(C)C)O2	-3.1	-12.5[16.7 µM]
CC(C)NC(=O)Nc1ccc2c(c1)CC(=O)N([C@@H](C)CO)C[C@@H](C)[C@H](CN(C)C(=O)Nc1ccc3c(c1)OCO3)O2	29.8	-5.9[16.7 µM]
CCCN1C[C@H](C)[C@H](OC)CN(C)C(=O)c2ccc(NS(=O)(=O)c3ccccc3)cc2OC[C@H]1C	-10.2	-10.2[16.7 µM]
O=C(C[C@H]1C=C[C@H](NC(=O)Nc2ccc3c(c2)OCO3)[C@H](CO)O1)NCCCN1CCOCC1	-14.5	4.9[16.7 µM]
C[C@H]1CN([C@@H](C)CO)C(=O)c2cccc(NC(=O)c3nc4ccccc4s3)c2O[C@@H]1CN(C)S(C)(=O)=O	2.8	-58.6[16.7 µM]
C[C@@H]1CN([C@H](C)CO)C(=O)c2cc(-c3cccnc3)cnc2O[C@@H]1CN(C)C(=O)C1CCCCC1	-13.8	-21.7[16.7 µM]
C[C@H]1CN([C@@H](C)CO)C(=O)Cc2cc(NC(=O)Nc3ccc(F)cc3)ccc2O[C@H]1CN(C)C(=O)Nc1ccc(F)cc1	-2.8	-8.3[16.7 µM]
COC(=O)C[C@H]1C[C@@H]2c3cc(NC(=O)Nc4ccc(F)cc4)ccc3O[C@@H]2[C@H](CO)O1	-11.3	10.3[16.7 µM]
O=C(C[C@@H]1CC[C@@H]2NC[C@H](O)COC[C@H]2O1)NC1Cc2ccccc2C1	-13.0	-1.5[16.7 µM]
C[C@@H]1CN([C@@H](C)CO)C(=O)c2cc(NC(=O)C3CCCCC3)ccc2O[C@@H](C)CCCCO[C@H]1CN(C)C(=O)CCC(F)(F)F	30.5	7.3[16.7 µM]
COc1ccc(S(=O)(=O)Nc2ccc3c(c2)C(=O)N([C@H](C)CO)C[C@@H](C)[C@@H](CN(C)S(=O)(=O)c2ccc(F)cc2)O3)cc1	9.9	31.2[16.7 µM]
COc1ccc(NC(=O)N(C)C[C@@H]2Oc3ccc(NS(=O)(=O)c4ccc(OC)cc4)cc3CC(=O)N([C@@H](C)CO)C[C@@H]2C)cc1	-6.3	0.3[16.7 µM]
O=C(C[C@H]1C[C@H]2c3cc(NC(=O)NC4CCCC4)ccc3O[C@H]2[C@H](CO)O1)NCCN1CCCCC1	-12.3	-17.7[16.7 µM]
C[C@@H]1CN([C@@H](C)CO)C(=O)c2cc(NC(=O)Nc3ccc(F)cc3)ccc2O[C@@H](C)CCCCO[C@H]1CN(C)CC1CC1	35.8	3.6[16.7 µM]
Cc1ccc(S(=O)(=O)Nc2ccc3c(c2)C(=O)N([C@H](C)CO)C[C@H](C)[C@@H](CN(C)Cc2ccc(C(=O)O)cc2)OCCCC[C@@H](C)O3)cc1	-13.9	16.3[16.7 µM]
CC(C)CC#Cc1ccc2c(c1)O[C@@H](CN(C)C(=O)c1cccc(F)c1)[C@@H](C)CN([C@@H](C)CO)S2(=O)=O	18.9	2.0[16.7 µM]

Overlap with the part before: three entries, followed by the next part.
SMILES	UUG fidelity	HIV Env fusion
C[C@@H]1CN([C@@H](C)CO)C(=O)c2cc(NC(=O)Nc3ccc(F)cc3)ccc2O[C@@H](C)CCCCO[C@H]1CN(C)CC1CC1	35.8	3.6[16.7 µM]
Cc1ccc(S(=O)(=O)Nc2ccc3c(c2)C(=O)N([C@H](C)CO)C[C@H](C)[C@@H](CN(C)Cc2ccc(C(=O)O)cc2)OCCCC[C@@H](C)O3)cc1	-13.9	16.3[16.7 µM]
CC(C)CC#Cc1ccc2c(c1)O[C@@H](CN(C)C(=O)c1cccc(F)c1)[C@@H](C)CN([C@@H](C)CO)S2(=O)=O	18.9	2.0[16.7 µM]
C[C@@H]1CN([C@@H](C)CO)C(=O)c2cc(C#CCc3ccccc3)cnc2O[C@@H]1CN(C)CC1CCOCC1	14.2	2.9[16.7 µM]
C[C@@H]1CCCCO[C@H](CN(C)Cc2ccc(C(=O)O)cc2)[C@H](C)CN([C@H](C)CO)C(=O)c2cc(NC(=O)Cc3ccccc3)ccc2O1	13.2	-3.0[16.7 µM]
CC(C)NC(=O)N[C@H]1C=C[C@H](CC(=O)NCCN2CCCC2)O[C@H]1CO	-6.2	-2.4[16.7 µM]
C[C@@H]1CN([C@H](C)CO)C(=O)c2cc(NC(=O)CCC(F)(F)F)ccc2O[C@@H]1CN(C)S(=O)(=O)c1ccc(F)cc1	-1.5	29.8[16.7 µM]
CCCC#Cc1ccc2c(c1)O[C@H](CN(C)Cc1ccc3c(c1)OCO3)[C@@H](C)CN([C@H](C)CO)S2(=O)=O	-3.0	17.6[16.7 µM]
CN(C)CC(=O)N1[C@H](C#N)[C@@H](c2ccc(-c3ccccc3F)cc2)[C@@H]1CO	-5.3	7.4[16.7 µM]
CC(C)CC#Cc1cnc2c(c1)C(=O)N([C@@H](C)CO)C[C@H](C)[C@@H](CN(C)S(=O)(=O)c1cn(C)cn1)O2	-15.6	-24.2[16.7 µM]
O=C(N[C@H]1CC[C@@H](CCNS(=O)(=O)Cc2ccccc2)O[C@H]1CO)c1ccc2c(c1)OCO2	6.0	-26.3[16.7 µM]
CCNC(=O)C[C@@H]1CC[C@@H]2[C@H](COC[C@@H](O)CN2C(=O)C2CCOCC2)O1	-13.8	-2.3[16.7 µM]
COc1ccc(CN(C)C[C@H]2OCCCC[C@@H](C)Oc3ccc(NS(=O)(=O)c4ccc(F)cc4)cc3C(=O)N([C@@H](C)CO)C[C@H]2C)cc1	27.7	-7.9[16.7 µM]
COCCOC(=O)N1C(=O)[C@@]2(c3cc(C#CCC(C(=O)OC)C(=O)OC)ccc31)[C@H](c1ccccc1OCCO)N1[C@H](c3ccccc3)[C@H](c3ccccc3)OC(=O)[C@H]1[C@@H]2C(=O)NC[C@H](O)c1ccccc1	23.0	-270.1[16.7 µM]
CC(C)C#Cc1ccc2c(c1)O[C@@H](CN(C)Cc1ccccn1)[C@H](C)CN([C@@H](C)CO)S2(=O)=O	-8.3	-25.8[16.7 µM]
C[C@@H]1CN([C@@H](C)CO)C(=O)c2cc(/C=C/c3ccccc3)cnc2O[C@H]1CN(C)S(=O)(=O)c1cccs1	7.1	15.2[16.7 µM]
C[C@@H]1CCCCO[C@@H](CN(C)C(=O)Nc2cccc3ccccc23)[C@@H](C)CN([C@H](C)CO)C(=O)c2cc(NC(=O)CCCCCC(=O)Nc3ccccc3N)ccc2O1	-3.6	16.4[16.7 µM]
O=C(C[C@@H]1CC[C@H](NS(=O)(=O)c2ccc(F)cc2)[C@H](CO)O1)NC1CCC1	-10.5	0.7[16.7 µM]
O=C(Nc1ccc2c(c1)OCO2)N[C@H]1C=C[C@H](CC(=O)N2CCN(c3ccccc3)CC2)O[C@@H]1CO	3.2	-4.9[16.7 µM]
C=CCN1C(=O)[C@]2(O[C@H](CCn3cc([C@H](O)c4ccccc4)nn3)[C@@H]([Si](C)(C)c3ccc(OC)cc3)[C@@H]2C)c2cc(N3CCC3=O)ccc21	7.7	-17.6[16.7 µM]
CNC[C@H]1Oc2c(NC(=O)c3nc4ccccc4s3)cccc2C(=O)N([C@@H](C)CO)C[C@H]1C	17.6	-12.4[16.7 µM]
CO[C@H]1CN(C)C(=O)c2cc(NC(=O)NC(C)C)ccc2OC[C@H](C)N(C(=O)NC(C)C)C[C@@H]1C	-4.0	22.6[16.7 µM]

Only part of the results is shown, so the mix of outcomes need not match the whole.
